Biofilm kill mix – clotrimazole potentiators killing C. albicans biofilm, primary screen, 4-compound mixtures. inhibition, % at 7.6 µM. 120,000 compounds, 0.02% hits. C. albicans biofilm persisters + clotrimazole, fluorescence viability; primary screen in compound mixtures of four per well;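 active = inhibition above 30.3% in the primary screen of four-compound pools, then above 30% when the compound was retested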;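 also: compounds exposed to preformed 24 h biofilms for 48 h; the number belongs to the whole pool; some results filed as inactive read as strong as hits; inactives centre near 12; 0% = biofilm with clotrimazole alone and 100% = kill control; retested singly at about 60 µM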
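Probe or stimulus – Clotrimazole 50 µg/mL co-treatment · System – C. albicans biofilms · Schedule – 24 h biofilm formation, then 48 h compound exposure, 37 °C · Evaluation – percent inhibition of biofilm viability · Technique – 2-h Alamar Blue fluorescence, 535/590 nm excitation/emission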
Active calls of the source: *. Not all compounds are listed (hit frequency here may not be typical).

SMILES	Biofilm kill mix
COc1ccc([N+](=O)[O-])cc1N(CC(=O)NC1CCCCC1)S(C)(=O)=O	15
COc1ccc(N2CCN(C(=O)NC3CC(=O)N(c4ccc(OC)cc4)C3)CC2)cc1 (stereo unspecified)	10
Cc1cccc(NC(=O)CCCn2c(=S)[nH]c3ccccc3c2=O)c1	13
Cc1cccc(/C=N/Nc2ccc3ccccc3n2)c1	-4
Cc1ccc(CNC(=O)/C=C/c2ccc(S(=O)(=O)N3CCOCC3)cc2)cc1	15
CC(C)N(C)S(=O)(=O)c1ccc(Cl)c(C(=O)O)c1	18
COc1cccc(C(=O)Oc2ccc3c(C)cc(=O)oc3c2C(C)=O)c1	18
COc1ccc(C(=O)NC(=S)Nc2nc(C)cc(C)n2)cc1Br	8
C=CCNC(=O)Nc1cc(Cl)ccc1OC	7
COc1ccc(/C=C/C(=O)Nc2ccc(-n3nncc3-c3ccc(OC)c(OC)c3)cc2)cc1OC	19
O=C(/C=C/c1ccc(OCc2cccc(Cl)c2)cc1)N1CCOCC1	3
CCONC(=O)Nc1ccccc1	-6
O=C(O)c1cc(N/N=C/c2cccs2)ccc1Cl	-13
Cc1cc(C)c2c3c(sc2n1)C(=O)N(c1ccccc1C)CC(=O)N3	13
Cc1cc[n+](C2=C([O-])c3ccccc3C(=O)/C2=N\S(=O)(=O)c2cccs2)cc1C	13
NC(=O)NOCc1ccc(F)cc1Cl	14
CCOc1cc(/C=C2/N=C(C)C(C(=O)OC)=C2O)ccc1O	10
CCOC(=O)c1sc(=S)n(-c2ccc(OC)cc2)c1N	16
CCOc1ccc(-n2c(O)c(/C=N/c3ccnn3Cc3ccncc3)c3ccccc3c2=O)cc1	16
Cc1cc(Cl)ccc1NNC(N)=S	18
S=c1[nH]nc(-c2ccco2)n1/N=C/c1c(Cl)cccc1Cl	13
COC(=O)c1ccc(N(C(=O)CNC(=O)c2ccco2)C(C(=O)NC2CCCC2)c2ccco2)cc1 (stereo unspecified)	9
O=C(Cn1c(=S)[nH]c2ccccc2c1=O)N1CCN(c2ccc(F)cc2)CC1	7
COc1ccc(C(CC(=O)O)NC(=O)c2sc3ccccc3c2Cl)cc1 (stereo unspecified)	-6
CCC(C)N1CCN(C(=O)c2cccs2)CC1 (stereo unspecified)	13
(more compounds)
SMILES	Biofilm kill mix
CCN(CC)CC#CCC(O)(c1ccccc1)c1ccc(Br)cc1 (stereo unspecified)	7
O=C(N/N=C/C=C/c1ccccc1[N+](=O)[O-])c1cccs1	17
CCCCN(C(=O)Cc1cccc(F)c1)c1c(N)n(CCC)c(=O)[nH]c1=O	16
CN1CCN(C(=O)c2ccc3c(=O)n(-c4ccc(F)cc4)c(=S)[nH]c3c2)CC1	25
O=C(CN1CC[n+]2c(-c3ccccc3)csc21)c1ccc(Br)cc1	-9
O=C1C2C(C(=O)N1c1nccs1)C1C=CC2C12CC2 (stereo unspecified)	-5
CC1C=CCC2C(=O)N(c3ccccc3OC(=O)c3cccs3)C(=O)C12 (stereo unspecified)	14
CCOC(=O)N1CCN(C(=O)/C(=C/c2cccc3ccccc23)NC(=O)c2ccc(OC)c(OC)c2)CC1	14
COc1ccc(-n2cc(CN(C)C(C)c3ccncn3)c(-c3cccc(F)c3)n2)cc1 (stereo unspecified)	15
O=c1oc(Nc2cccc(Cl)c2)nc2ccccc12	14
CCOc1ccc(N=C2NC(=O)C(CC(=O)Nc3ccccc3)S2)cc1 (stereo unspecified)	16
O=C1C(=Cc2cccs2)C(=O)c2ccccc21	18
Cc1ccc(NC(=O)c2ccncc2)cc1[N+](=O)[O-]	3
Cc1[nH]c2ccccc2c1C(O)CN1CCC2(CC1)OCCO2 (stereo unspecified)	16
Clc1ccc(-c2ccnc(-n3cccc3)n2)s1	7
CCCCc1ccc(NC(=O)c2ccc(NS(C)(=O)=O)cc2)cc1	18
Cc1nn(C)c(C)c1N1C(=O)c2cccc3c(Br)ccc(c23)C1=O	8
O=C(c1ccc(Cl)cc1)C1CCCN(Cc2cccn2-c2cccnc2)C1 (stereo unspecified)	22
O=c1c2ccccc2c(C=Nc2ccc(O)cc2)c(O)n1Cc1ccccc1	10
Cc1ccc(-c2csc(N=C(N)N)n2)c(C)c1	14
CCCOc1ccc(C(NC(=O)CC(C)C)NC(=O)CC(C)C)cc1OC	22
CCCSC1=C(C#N)C(c2cccs2)CC(=O)N1 (stereo unspecified)	14
CC(=O)/C=C1/SC(CC(=O)O)C(=O)N1c1ccccc1 (stereo unspecified)	12
Clc1ccc(-c2nc(C3CCCCC3)no2)cc1	14
CCCNC(=O)CSc1nc2ccccc2c(=O)n1CCC	8
Other results.
SMILES	Biofilm kill mix
CN(C)S(=O)(=O)c1cccc(NC(=O)COC(=O)CCOc2ccccc2)c1	9
Cn1nc(C(C)(C)C)cc1C(=O)NNC(=O)c1ccc(C(F)(F)F)cc1	6
Cc1c2c(nc3ccccc13)CCC(C(C)(C)C)C2 (stereo unspecified)	16
COc1ccc(CNC(=O)Cn2ncn3cccc3c2=O)cc1	14
Cc1cc(/C=N\NC(=O)COc2cccc3cccnc23)c(C)n1-c1ccc(Br)cc1	10
CSc1cccc(NC(=S)N(CCC(C)C)C(C)c2ccncc2)c1 (stereo unspecified)	20
CC(C)Cn1c(N)c(C(=O)COC(=O)c2cccnc2Cl)c(=O)n(C)c1=O	21
CC(=O)c1ccc(OCCCC(=O)Nc2ccc(C)c(S(=O)(=O)N(C)C)c2)cc1	4
O=c1cc(-c2cccc(Br)c2)nc(-c2ccccc2F)o1	8
Cc1c(C(=O)N2CCCCC2C)sc2ncnc(N3CCc4ccccc4C3)c12 (stereo unspecified)	11
CCOC(=O)NC(=O)/C(C#N)=C(/C)N(C)C	15
CCOC(=O)c1sc(NC(=O)C(CC)Sc2nnc3c4ccccc4n(CC)c3n2)nc1C (stereo unspecified)	1
Cc1ccc(NC(=O)CSc2nnc(-c3ccccn3)n2N)cc1F	19
CN(C(=O)COC(=O)c1cc([N+](=O)[O-])ccc1Sc1ccccc1)C1CCS(=O)(=O)C1 (stereo unspecified)	-7
CC(C)CNC(=O)NC(=O)COC(=O)c1cccc(NS(=O)(=O)c2ccc(F)c(F)c2)c1	13
COc1ccccc1-n1c(SCC(=O)OC(C)C)nc2cccnc21	19
O=C(Nc1ccc(CN2CCS(=O)(=O)CC2)cc1)c1ccccc1	13
COc1ccc(NC(=S)NC2CCCCC2)cn1	4
c1ccc(-c2nc(-c3ccncc3)n[nH]2)nc1	12
Cc1cc(C)nc(/N=C(/NC(=O)Nc2ccc(Cl)c(Cl)c2)Nc2cccc(Cl)c2)n1	1
COC(=O)c1cc(NC(=S)N2CCN(c3ccccn3)CC2)cc(C(=O)OC)c1	16
Oc1ccc(/C(Cc2ccccn2)=N\Nc2ccccc2)c(O)c1	15
Cc1ccc(NC(=O)CS(=O)CC(=O)N(c2ccc(C)cc2)C(C)C(=O)NC2CCCCC2)cc1 (stereo unspecified)	20
Cc1cccc2cc3c(N)c(C(=O)N4CCCc5ccccc54)sc3nc12	10
O=C(COc1ccc([N+](=O)[O-])cc1Cl)NCCc1ccccc1	13
Next part:
SMILES	Biofilm kill mix
Cc1cc(C)[n+](C)n1CC(O)Cn1c2ccccc2c2ccccc21 (stereo unspecified)	15
CC(=O)c1cccc(NC(=S)NCCc2ccc(Cl)cc2)c1	8
COc1ccc(/C=C2\C(=O)N(c3c(Cl)cc(Cl)cc3Cl)N=C2NC(=O)c2cccc([N+](=O)[O-])c2)cc1	17
Nc1nccc(-c2nn(-c3ccc(Cl)cc3)ccc2=O)n1	16
CC(C)C(c1nnnn1C1CCCC1)N1CCC(C(N)=O)CC1 (stereo unspecified)	31
Cc1ccccc1NC(=O)c1ccccc1NC(=O)Cc1cccc2ccccc12	16
Cc1ccc(NC(=O)Cc2c[nH]c3ccccc23)cc1S(=O)(=O)N1CCCCCC1	2
Cc1ccc(C)c(NC(=S)NCCN(C2CCCCC2)C2CCCC2)c1	-3
CC(=O)NNC(=O)c1cc2sccc2s1	-12
C=CCOc1ccccc1/C=N/NC(=O)c1ccc(Cl)cc1Cl	12
CCOC(=O)c1ccc(NC(=O)c2nc[nH]c2C(=O)NC2CCN(C(=O)OC(C)(C)C)CC2)cc1	16
CNC(=S)N/N=C/c1c(C(=O)OC)cnn1-c1ccc(F)cc1F	17
O=C(NCCc1cnn(-c2ccccc2)c1)c1cc(COc2c(F)cccc2F)on1	21
CCn1c(/C=C/c2ccccc2[N+](=O)[O-])nc2ccccc2c1=O	12
O=C(NCCc1ccc(Cl)cc1)c1ccc2nc[nH]c2c1	1
O=C(N/N=C/c1c(F)c(F)c(F)c(F)c1F)c1ccc(Cn2cc(Br)cn2)o1	7
C/C(=C/C#N)Nc1ccc(C)cc1	1
Cc1ccc(C(=O)NCCc2n[nH]c(=S)n2C)cc1	20
CCN(CC)S(=O)(=O)c1ccc(N/N=C/c2ccc(OC)c(OC)c2OC)nc1	14
CCOC(=O)C1=C(C)Nc2nc3ccccc3n2C1c1cccs1 (stereo unspecified)	13
CN(c1ccc(C(=O)NCCSCc2c(F)cccc2Cl)cc1)S(C)(=O)=O	16
CC(=O)N1CCN(S(=O)(=O)c2cccc(C(=O)Nc3ccc4c(c3)OCO4)c2)CC1	9
CC(C)CC(=O)c1c[nH]c(C(=O)NCc2cccnc2)c1	19
Cc1ccnc(NS(=O)(=O)c2ccc(NC(=O)c3ccc(C)o3)cc2)n1	9
O=c1nc2sc3ccccc3n2c(=O)n1-c1ccc(Cl)cc1	20
Next part:
SMILES	Biofilm kill mix
NNC(=O)CNC(=O)c1ccc(F)cc1	20
CC(=O)Nc1nnc(-c2c(-c3ccccc3Cl)noc2C)o1	5
Cc1ccc(S(=O)(=O)NCCCCCC(=O)Nc2ccccc2)cc1	10
COc1ccc(C(=O)C2CCCN(Cc3cn[nH]c3-c3ccc(F)cc3)C2)cc1OC (stereo unspecified)	8
CCN(CC)c1ccc(NC2CC(=O)N(CCc3ccc(OC)cc3)C2=O)cc1 (stereo unspecified)	18
COc1ccc(N(CC(=O)Nc2ccc(F)cc2)S(=O)(=O)c2ccccc2[N+](=O)[O-])c(OC)c1	1
O=C(NN=C1CCCCCC1)c1cccnc1	8
CC(C)C(=O)Nc1nnc(-c2ccco2)s1	9
Fc1ccc2nc(C3CCN(Cc4nc(CC5CC5)no4)CC3)[nH]c2c1	-6
COc1ccccc1OCC(=O)N/N=C1\CCCCc2ccccc21	7
COc1ccc(N2C(=S)NC3c4cc(Cl)ccc4OC2(C)C3C(=O)N(C)C)cc1 (stereo unspecified)	-2
CCC1CCCCN1C(=O)c1cc(COc2ccc3ncccc3c2)on1 (stereo unspecified)	10
COC(=O)c1nn(-c2ccc(OC)cc2)c(=O)cc1Sc1ccc(C)cc1	17
O=C(Nc1cccc(S(=O)(=O)N2CCOCC2)c1)c1ccc(N2CCOCC2)c([N+](=O)[O-])c1	19
CCC(C)NC(=O)CCn1c(-c2ccc(F)cc2)cc(C(C)=O)c1C (stereo unspecified)	13
COc1ccc(NC(=O)COC(=O)/C=C/c2ccccc2[N+](=O)[O-])cc1OC	16
N#Cc1c(Cl)nc(N/N=C/c2ccccc2)c(Cl)c1Cl	13
CCCC(=O)Nc1ccc2c(c1)nc1n2CCN(C2CCCCC2)C1	24
CCOC(=O)C(C)Oc1ccc(NC(=O)C(Cl)Cl)cc1 (stereo unspecified)	14
COc1ccc(OC)c(/C=C/C(=O)NC2=NCCS2)c1	14
O=C(O)CCc1nnc(SCC(=O)Nc2ccc(Cl)c(C(F)(F)F)c2)[nH]c1=O	5
CCOC(=O)c1cnc(-n2[nH]c(C)c(Cc3ccccc3)c2=O)[nH]c1=O	2
CN(C)Cc1ccccc1Cc1ccccc1	7
N#Cc1c(-c2ccccc2Cl)c2c([nH]c1=O)-c1ccccc1OC2	15
